RN4220 kill = kills Staphylococcus aureus RN4220 | S. aureus RN4220 growth, OD600, 16 h | inhibition, % (no concentration beside the values) | 330,000 compounds, 0.33% hits | AID 1259311;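 active = z-score of -3 or lower and OD600 up to 0.18 on both plates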;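 note: plate controls were untreated cells for no effect and reference antibiotic for full effect; stock transfer was 100 nL into about 80 µL; one replicate is shown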
BJeLR viability = BJeLR cell viability loss; BJeLR (HRASV12) viability, CellTiter-Glo ATP luminescence, 48 h; reference of the scale not given here; inhibition, % (concentration not given with the values); 300,000 compounds, 0.17% hits;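 active = replicate mean above 50%; inconclusive = above 50% but judged a plate artefact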;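 note: 50 nL library stock added to about 25 µL; numbers are from one replicate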
Bead autofluor = counter-screen for toxin protease inhibitors: compound fluorescence. compound autofluorescence counterscreen, microsphere flow cytometry; active compounds read high. fluorescence intensity (no concentration beside the values). 360,000 compounds, 3.1% hits. AID 624483;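 active = at least 3 SD above the mean of all compounds, about 16000 in these data; inconclusive = too few beads counted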;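 note: 100 nL of 1 mM stock went into each well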
PrP 5UTR inh = inhibition of PrP 5' UTR reporter expression; 340,000 compounds, 0.35% hits; AID 488862; inhibition, % (no concentration beside the values); cell-based PrP 5' UTR mRNA reporter, plate reader;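 active = every replicate at 50% or more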;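 note: 0 = median of the neutral control wells; tested in H4 reporter cells; numbers are from one replicate; inactives centre near -14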
ugtP null kill = kills S. aureus RN4220 lacking UgtP; 330,000 compounds, 0.54% hits; AID 1259309; growth inhibition, % (no concentration beside the values); S. aureus RN4220 ugtP deletion, OD600 growth, 16 h; some inactives read as strong as hits;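 active = z-score under -3 and OD600 up to 0.15 on both plates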;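 note: plate controls were untreated wells for no effect and antibiotic for full effect; wells of about 80 µL received 100 nL stock; the first replicate is given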
Mtb hypoxia inh = Mtb hypoxia fluorescent reporter inhibition; fluorescence inhibition, % (concentration not given with the values); 300,000 compounds, 0.1% hits; M. tuberculosis hypoxia-regulated fluorescent reporter, fluorescence; AID 1159583;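 active = 35 to 45% if threefold the growth effect, above 45% if 1.5-fold the growth effect; inactive = the rest, general growth blockers included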;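 note: wells of about 50 µL received 100 nL stock; 0% = vehicle wells and 100% = reference inhibitor wells; whole bacteria with a GFP reporter of the hypoxia response; strong numbers were not always called active; many hits fall short of the cut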
Mtb hypoxia inh growth = second read-out of Mtb hypoxia inh, no call of its own (marks repeat the call); growth inhibition, %; measured here: M. tuberculosis growth (absorbance);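 0% = vehicle and 100% = reference antibiotic; read after six days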
* marks the source's active call; other numbers are inactive results; ? = inconclusive; . = no result given; & = joins results of further samples.

entry	SMILES	BJeLR viability	RN4220 kill	PrP 5UTR inh	Mtb hypoxia inh	ugtP null kill	Bead autofluor	Mtb hypoxia inh growth
1	COc1ccc(COC[C@H](C)[C@H](O)[C@@H](C)[C@H]2OC(=O)[C@@H]2C)cc1	12	.	-16	.	.	4154	.
2	CCCCOC(=O)N1CCOCCOCCOCCOCC1	-8	3.6	-30	8	3	3553	7
3	O=C(N/N=C/c1ccc(N2CCCC2)c([N+](=O)[O-])c1)c1cccnc1	7	.	-12	.	.	5036	.
4	CCN(CC)S(=O)(=O)c1ccc(C(=O)Nc2nnc(-c3ccco3)o2)cc1	4	20	-9	-12	-6	2456	8
5	O=C(Cn1nnc(-c2cccs2)n1)NCc1ccccc1	-11	-7.0	-15	-2	-8	2027	4
6	O=C(Nc1ccccc1C(F)(F)F)NC1CCCCCCC1	0	2.8	-23	0	-1	7710	2
7	CN(C)CCNC(=O)c1onc(CSc2ccncc2)c1C(=O)NCCN(C)C	7	6.3	-17	6	0	2909	5
8	O=C(O)CC1(CC(=O)NCc2ccccn2)CCCCC1	-3	5.3	-15	6	-1	4044	3
9	Cc1ccc2nc(N3CCN(C(=O)CCC(=O)O)CC3)nc(-c3ccccc3)c2c1	2	3.2	.	6	0	3040	-8
10	CCCNC(=O)CN(C1CCCCC1)S(C)(=O)=O	10	-7.7	-17	4	-5	3260	15
11	COc1ccc(C(C)=NNc2nc3ccccc3n3cnnc23)cc1OC	.	6.3	.	3	8	.	-8
12	CCc1ccc(-c2nc(SCC(=O)c3c(N)n(C4CC4)c(=O)[nH]c3=O)n[nH]2)cc1	.	2.3	-22	3	8	8796	-5
13	COc1ccc(NC(=O)c2cc(S(=O)(=O)N3CCOCC3)cn2C)cc1Cl	-12	3.7	-12	4	-4	5584	4
14	CC1CCc2c(sc3ncnc(N4CCOCC4)c23)C1 (stereo not drawn)	0	6.6	5	7	12	?	8
15	Cc1ccc(OCC(O)Cn2c(N)nc3c2c(=O)n(C)c(=O)n3C)cc1 (stereo not drawn)	6	6.4	-1	-18	5	4450	-3
16	CNc1nnc(CSc2nc3ccccc3s2)s1	11	-8.2	-24	19	-6	2919	16
17	CCCc1cc2c(cc1NC(=O)c1ccccc1Cl)OCO2	5	13	4	9	1	2456	3
18	Cc1ccc(NC(=O)C2C3C=CC4(CN(Cc5cccnc5)C(=O)C24)O3)cc1F (stereo not drawn)	-8	3.2	-23	.	0	4427	.
19	COc1ccc(-c2noc(CSc3nc4sc(C)c(C)c4c(=O)n3-c3ccccc3)n2)cc1OC	-14	0.7	-34	5	8	11045	2
20	O=C1/C(=C/c2ccccc2)C[C@@]2(O)[C@H]3Cc4ccc(O)c5c4[C@@]2(CCN3CC2CC2)C1O5 (stereo partly drawn)	.	1.0	10	.	-8	5391	.
21	O=C(Nc1ccc(S(=O)(=O)Nc2nccs2)cc1)c1cccc(F)c1	-2	3.0	-25	7	4	3939	10
22	NC(=O)c1ccc[n+](CC(=O)c2cccc([N+](=O)[O-])c2)c1	13	1.6	-16	1	4	3564	-3
23	COc1ccc(OCC(=O)Nc2ccncc2)cc1	-1	1.9	-5	10	9	4740	-3
24	CN(CCOC(=O)c1ccccc1)Cc1ccccc1	2	5.1	-12	3	12	2146	-1
25	Cc1nc2cc3ccccc3cc2c(=O)[nH]1	2	6.0	-34	10	-8	10674	5
26	CCN(Cc1ccccc1)c1ccc(/C=N/NC(=O)c2cccc(S(=O)(=O)N3CCOCC3)c2)cc1	12	.	-20	.	.	10474	.
27	CC(C)C(CC(=O)NCc1ccco1)c1ccco1 (stereo not drawn)	7	2.5	-15	11	3	3840	8
28	COc1ccccc1NC(=O)CSc1nnc(C2CCCCC2)o1	1	6.7	-33	13	7	8897	7
29	CCOc1ccc(CC(=O)NCC2(N3CCCCC3)CCCCC2)cc1	-4	1.1	-13	9	1	9755	6
30	CC(C)(CNC(=O)CON=C1C=C2CCC3C(C(O)C[C@@]4(C)C3CC[C@]4(O)C(=O)CO)[C@@]2(C)CC1)C(O)C(=O)O (stereo partly drawn)	.	3.6	.	-5	7	.	5

Part of the list above, limited to Bead autofluor:
nr | mol | Bead autofluor
20 | O=C1/C(=C/c2ccccc2)C[C@@]2(O)[C@H]3Cc4ccc(O)c5c4[C@@]2(CCN3CC2CC2)C1O5 (stereo partly drawn) | 5391
23 | COc1ccc(OCC(=O)Nc2ccncc2)cc1 | 4740

Later entries:
entry	SMILES	BJeLR viability	RN4220 kill	PrP 5UTR inh	Mtb hypoxia inh	ugtP null kill	Bead autofluor	Mtb hypoxia inh growth
31	COc1cc2c(cc1OC)CN(C(=O)Cn1ccccc1=O)CC2	-2	4.4	-17	.	-2	5359	.
32	CCOC(=O)C1CCCN(CC(O)COCc2ccc3c(c2)OCO3)C1 (stereo not drawn)	2	11	-6	-7	3	3193	9
33	O=C1c2ccccc2C(=O)N1CCc1c[nH]c2ccc(O)cc12	-7	2.8	-6	2	0	2546	4
34	COc1ccc(C2Nc3ccccc3C(=O)N2Cc2ccco2)cc1COc1ccc(F)cc1 (stereo not drawn)	2	-1.9	-2	1	-1	8987	2
35	O=C(CN1C(=O)NC2(CCCC2)C1=O)Nc1cc(Cl)ccc1N1CCCC1	2	0.7	-1	-2	0	4809	-7
36	C[C@H](NC(=O)C(c1ccccc1)c1ccccc1)c1ccccc1	-7	-0.8	-15	14	6	4056	4
37	CCOCc1nnc(NC(=O)c2ccc(NC(C)=O)cc2)s1	23	3.3	-15	-4	12	4240	0
38	COc1cccc(CSc2nnc(C(F)(F)F)n2Cc2ccc(F)cc2)c1	-1	7.3	3	2	-17	22093*	7
39	C=CCn1c(SCC(=O)N2CC(C)OC(C)C2)nnc1-c1ccncc1 (stereo not drawn)	.	1.0	-15	-6	2	6312	-1
40	CC(=NNC(=O)c1cccc(F)c1)c1ccc(Br)s1	.	-3.3	.	-9	-7	.	4
41	Clc1ccc2ncc(-c3nnnn3-c3ccccc3)c(-c3ccccc3)c2c1	-3	-2.6	-12	-1	-11	3370	6
42	CC(C)[C@@]1(NC(=O)[C@@H]2C[C@@H]3c4cccc5[nH]cc(c45)C[C@H]3N(C)C2)O[C@@]2(O)[C@@H]3CCCN3C(=O)[C@H](Cc3ccccc3)N2C1=O	-11	.	-18	.	.	6403	.
43	N#CCSc1ncnc2ccccc12	2	-0.2	-15	0	-17	3174	3
44	Cc1ccc(NC(=O)CCC(=O)NN=Cc2ccc([N+](=O)[O-])o2)cc1C	.	13	.	7	0	.	5
45	Cc1cccc(Cc2cnc(NC(=O)c3ccc(C)o3)s2)c1	-14	-2.6	-66	.	-4	3199	.
46	CC(NC(=O)c1ccc2c(c1)OCCO2)c1ccc(S(N)(=O)=O)cc1 (stereo not drawn)	9	8.0	-1	12	3	3407	6
47	COC(=O)c1scc(C)c1NC(=O)Cc1ccccc1	12	6.1	-6	2	9	9598	-1
48	CC(=O)COC(=O)c1cccc(N2C(=O)C3C4C=CC(C4)C3C2=O)c1 (stereo not drawn)	-7	1.1	10	.	12	4456	.
49	COc1ccc(CC(=O)OCC(=O)NC2CCCCCC2)cc1OC	.	2.2	-25	4	5	?	0
50	COc1ccc(-n2nc(C(=O)Nc3nc4ccc(OC)cc4s3)c3ccccc3c2=O)c(OC)c1	-30	3.9	.	2	-19	.	7
51	COCCn1c(C)cc(C(=O)COC(=O)CCc2ccc(S(=O)(=O)N3CCOCC3)cc2)c1C	-1	0.7	-2	5	-5	22125*	5
52	COc1ccc(NC(=O)C/C(C)=N/NC(=O)c2ccccn2)c(OC)c1	-6	.	-20	.	.	6008	.
53	O=C(CCc1ccccc1)Nc1cccc(-c2nnc(-c3ccco3)o2)c1	4	6.5	-60	-2	-3	3856	7
54	CC1(CCc2ccc3c(c2)OCO3)NC(=O)c2ccccc2N1 (stereo not drawn)	10	4.9	-16	6	6	8092	0
55	COc1ccc(C(=O)CCC(=O)NC2=NCCS2)cc1	-1	-1.4	3	-22	-4	8273	-4
56	CC(C)c1ccc(N2C(=O)NC(=O)C(=CC=Cc3ccco3)C2=O)cc1	.	-0.5	.	-7	-2	.	7
57	CC(C)C[C@@H](CSc1ccc(Br)cc1)N1CCN(C)CCC1=O	-5	.	-33	.	.	3110	.
58	CC(Nc1c[nH]c(=O)[nH]c1=O)c1ccccc1 (stereo not drawn)	-6	2.2	-25	3	-4	3852	12
59	CC(C)(C)c1ccc(OCC(=O)NCCN2CCOCC2)cc1	4	3.4	-12	2	1	5504	2
60	COc1ccc(CCN2C(=O)CN(Cc3ccccc3)CC2=O)cc1OC	1	0.9	-8	8	0	2516	5
61	COc1ccc(CNC(=O)C2CCN(S(=O)(=O)N3CCCCC3)CC2)c(OC)c1	8	-0.6	-6	3	3	4368	0
62	CC1(C)C2CC=C(/C=N/NC(=S)Nc3cccnc3)C1C2 (stereo not drawn)	0	.	-9	.	.	4456	.
63	Cc1ccc(-n2c(O)c(C=NCCN3CCOCC3)c(=O)[nH]c2=O)cc1	4	1.8	-3	-6	-1	3255	2
64	COc1ccc(-n2nc3c(c2NC(=O)c2cc4ccccc4o2)CS(=O)(=O)C3)cc1	-3	-2.9	-2	9	3	6838	5
65	Cc1ccccc1C(=O)N1CCN(c2ncnc3c2cnn3-c2ccccc2)CC1	-2	-3.0	-4	9	4	3992	19
66	COC(=O)CSC1=C(C#N)C(c2ccccc2F)CC(=O)N1 (stereo not drawn)	6	4.6	6	5	12	5556	4
67	O=C(CCn1c(=O)sc2ccccc21)Nc1nccs1	-5	3.6	-32	8	4	6900	1
68	CC(=NNC(=O)c1ccco1)c1ccc(-c2ccccc2)cc1	.	6.8	.	5	15	.	13
69	COCCn1nnnc1C(CC(C)C)N1CCN(C(=O)c2ccco2)CC1 (stereo not drawn)	.	-1.7	-24	.	2	4476	.
70	Cc1ccc(N(C(=O)CNC(=O)c2ccco2)C(C(=O)NC2CCCC2)c2cccnc2)c(C)c1 (stereo not drawn)	-4	2.5	-12	7	7	5611	2
71	CNC(=O)C1CCN(S(=O)(=O)c2c(C)noc2/C=C/c2ccc(OC)cc2)CC1	-7	-11	10	0	-9	4186	10
72	O=C(NCC(O)COc1ccc([N+](=O)[O-])cc1)Nc1ccccc1 (stereo not drawn)	-10	0.5	-56	1	7	5558	8
73	CCC(=O)N(Cc1cc2ccccc2[nH]c1=O)c1ccc(OC)cc1	4	1.0	-23	7	1	3455	-1
74	COC(=O)c1ccccc1NC(=S)NC(=O)COc1ccc(C)cc1	1	8.3	-22	5	4	3535	5
75	Cc1nn(CCCC(=O)Nc2ccccn2)c(C)c1[N+](=O)[O-]	5	4.6	-20	5	1	3828	4
76	O=C(Nc1cc(S(=O)(=O)N2CCCCCC2)ccc1OCC(F)(F)F)c1cnccn1	.	26	-10	3	15	6763	5
77	Cc1ccc(S(=O)(=O)CCC(=O)OCc2cc(=O)oc3cc(C)ccc23)cc1	.	4.2	-8	3	0	.	3
78	COc1cc(C(=O)N/N=C/c2ccc(OC(=O)c3ccccc3Cl)cc2)ccc1O	2	.	0	.	.	4634	.
79	O=C(CC1CC=CCCC(Cc2ccc(F)cc2)C(=O)OCC2CCCN2C1=O)NCCO (stereo not drawn)	.	7.5&7.2&3.2&5.2	.	7&6&13&4	0&0&4&-7	.	3&1&8&3
80	Cc1c(N=Nc2ccc(N(C)C)cc2)c(=O)n(-c2ccccc2)n1C	-21	1.9	-26	3	14	4010	5
81	COc1ccccc1/C=C/C(=O)NCC(=O)NN=Cc1ccccc1	.	2.5	.	1	-6	.	5
82	Cc1nc2c(ncn2-c2ccccc2)c(=O)n1NC(=O)CN1CCCC1	9	1.3	-36	-3	4	5283	4
83	Cc1c(C)c(C)c(S(=O)(=O)Nc2ccc3[nH]c(=O)[nH]c3c2)c(C)c1C	-7	2.0	-9	14	3	4187	0
84	FC(F)(F)c1cc(-c2ccccc2)nc(N2CCCCCC2)n1	-6	-3.4	-16	.	83	4513	.
85	O=C1CN(C(=O)COc2ccccc2)c2ccccc2N1	-15	2.3	-16	-2	2	5659	-15
86	COc1cccc(CN2CCCCC2c2cccnc2)c1 (stereo not drawn)	-1	2.5	-27	8	8	5493	8
87	CN(Cc1ccccc1)C(=O)CN1C(=O)c2ccc([N+](=O)[O-])cc2C1=O	5	-2.0	-18	0	5	6676	-5

Compound activity deposited in PubChem BioAssay by several laboratories.

Outcome played no part in choosing rows (roughly 4% active in at least one column).
